AF4-AF9 inh – inhibitors of AF4 peptide binding to AF9, primary screen, biochemical, AlphaScreen, biotin-AF4 peptide, FLAG-AF9, single point. Protein AF-9 (Homo sapiens), P42568. inhibition, % at 10 µM. hit rate 0.47% among 350,000. AID 651704, 2012;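 active = every replicate reaching a set inhibition limit, whatever the replicate mean, cut at about 25% in these data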;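 also: 0% = plate neutral control median and 100% = total signal loss; the record names both 10 and 1 µM as test concentration; the first replicate is given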
Target sequence (P42568 whole entry, looked up): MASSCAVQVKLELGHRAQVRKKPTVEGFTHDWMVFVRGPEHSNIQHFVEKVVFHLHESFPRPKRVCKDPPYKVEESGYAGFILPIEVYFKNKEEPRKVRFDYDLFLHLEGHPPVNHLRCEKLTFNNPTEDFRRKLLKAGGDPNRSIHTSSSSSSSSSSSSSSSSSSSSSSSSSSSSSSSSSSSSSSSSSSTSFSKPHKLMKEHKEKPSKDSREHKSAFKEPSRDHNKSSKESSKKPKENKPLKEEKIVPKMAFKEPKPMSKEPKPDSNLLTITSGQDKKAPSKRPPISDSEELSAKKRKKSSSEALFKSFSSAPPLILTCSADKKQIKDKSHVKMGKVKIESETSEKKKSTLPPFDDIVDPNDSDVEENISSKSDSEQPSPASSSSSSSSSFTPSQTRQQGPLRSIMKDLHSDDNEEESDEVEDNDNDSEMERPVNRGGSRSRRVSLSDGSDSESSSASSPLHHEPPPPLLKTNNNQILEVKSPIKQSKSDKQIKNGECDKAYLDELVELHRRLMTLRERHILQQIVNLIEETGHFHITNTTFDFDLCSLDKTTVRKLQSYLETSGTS
FGF22 binding – binders of human FGF22 protein, primary screen, FGF22 synaptogenesis inhibitor project, biophysical, thermal shift, single point | recombinant FGF22 thermal shift, SYPRO orange fluorescence; percent of sucrose octasulfate shift, DMSO zero | hit rate 1.5% among 340,000 | Fibroblast growth factor 22 (Homo sapiens), Q9HCT0 | calls only at 9.99 µM;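 active = melting point raised past a set limit in the mean and every replicate; three in four hits are not shown here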
Target sequence (Q9HCT0 whole entry, looked up): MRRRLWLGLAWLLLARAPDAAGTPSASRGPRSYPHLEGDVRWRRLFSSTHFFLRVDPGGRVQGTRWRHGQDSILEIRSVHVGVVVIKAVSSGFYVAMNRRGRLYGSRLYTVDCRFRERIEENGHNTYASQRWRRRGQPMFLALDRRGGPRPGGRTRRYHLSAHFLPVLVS
Ecoli rRNA inh – reduced GFP signal of wild-type E. coli, primary screen, bacterial rRNA inhibitor project, GFP/RFP fluorescence, OD600, single point. E. coli WT GFP vs humanized-ribosome RFP mutants, 24 h; stronger effect = lower value; DMSO median 0, no signal -100. GFP signal change (wild-type ribosome), % (concentration not given with the values). hit rate 1.6% among 350,000;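 active = significant combined selectivity score with lowered wild-type GFP, culture density cut under 30%, mutant RFP and density less affected; inactive = any of these conditions unmet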; also: one replicate is shown; some compounds called inactive have numbers as strong as hits
Ecoli rRNA inh OD600 – second read-out of Ecoli rRNA inh, no call of its own (marks repeat the call); OD600 change, %; measured here: OD600 growth;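 optical density of the mix in the first replicate; 0 = DMSO median and -100 = no signal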
Ecoli rRNA inh RFP – further read-out of Ecoli rRNA inh, marked with its call; RFP signal change, %; measured here: RFP humanized mutant strains;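 first replicate; 0 = DMSO median and -100 = no signal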
* marks the source's active call; other numbers are inactive results; i = inactive; & = joins results of further samples. The list is partial (hit frequency here may not be typical).

SMILES	AF4-AF9 inh	FGF22 binding	Ecoli rRNA inh	Ecoli rRNA inh OD600	Ecoli rRNA inh RFP
C[C@@H]1CN([C@H](C)CO)S(=O)(=O)c2ccc(-c3cncnc3)cc2O[C@@H]1CN(C)C(=O)Cc1cccnc1	-14	i	8	5	1.4
COc1ccc2c3c([nH]c2c1)[C@@H](CO)N(Cc1ccccc1)CC31CCN(C(=O)c2cccnc2)CC1	-0.4	i	4	2	0.6
C[C@@H]1CN([C@H](C)CO)C(=O)CCCn2nncc2CO[C@@H]1CN(C)C(=O)Nc1ccccc1	0.9&0.5	i	19&0	18&0	5.4&-0.8
O=C(C[C@@H]1CC[C@@H]2[C@H](COC[C@H](O)CN2C(=O)c2ccccn2)O1)N1CCN(c2ccccc2)CC1	-0.3	i	7	15	-2.7
CC1=NCC(C)c2ccccc21 (configuration not stated)	1.2	i	6	2	2.5
Cc1ccc(S(=O)(=O)N2C[C@@H](O)COC[C@@H]3O[C@@H](CC(=O)NCCN4CCCCC4)CC[C@H]32)cc1	-1.9	i	3	16	-0.6
COCCNC(=O)[C@@H]1[C@@H](CO)[C@@H]2Cn3c(ccc(-c4ccc(F)cc4)c3=O)[C@H]1N2C	-1.4	i	3	3	0.6
CC(C)NC(=O)N[C@H]1CC[C@H](CCn2cc(-c3ccc(F)cc3)nn2)O[C@@H]1CO	1.1	i	-2	-5	0.5
CCCNC(=O)[C@H]1[C@H](CO)[C@H]2Cn3c(ccc(-c4ccc(F)cc4)c3=O)[C@@H]1N2C	-0.9	i	2	7	-3.2
Cc1ccc(NS(=O)(=O)c2ccc(C)c(C(=O)Nc3ccc(S(=O)(=O)Nc4onc(C)c4C)cc3)c2)cc1	3.2	i	1	-13	2.3
COc1ccc2c3c([nH]c2c1)[C@@H](CO)N(C)CC31CCN(C(=O)CN(C)C)CC1	3.9	i	4	8	-0.6
C[C@H]1CN([C@@H](C)CO)C(=O)c2cc(-c3ccc(F)cc3)cnc2O[C@H]1CN(C)C(=O)c1ccc(F)cc1	-2.7	i	-3	11	-0.5
C[C@@H]1CN([C@H](C)CO)C(=O)c2cc(NS(C)(=O)=O)ccc2O[C@H]1CN(C)Cc1ccc(Cl)c(Cl)c1	1.9	i	-9	-16	-0.7
Cn1c(-c2ccccc2)cc(=O)n1-c1ccccc1	3.5	i	8	-13	5.1
CCS(=O)(=O)NCC[C@@H]1CC[C@@H](NS(=O)(=O)c2cccc(F)c2)[C@@H](CO)O1	-1.0	i	-1	9	1.1
CC=Cc1ccc2n(c1=O)C[C@@H]1[C@@H](CO)[C@H](C(=O)NCCC)[C@H]2N1C(=O)C1CCCC1 (mixture of isomers)	-0.9	i	-1	6	-4.0
O=C(CSc1nc2[nH]c(=O)cc(O)c2s1)NCCc1ccccc1	-2.0	i	7	16	3.4
Cc1cc2c(cc1C)-n1nnnc1C(N1CCN(CC(=O)N3CCCC3)CC1)C(=O)N2 (configuration not stated)	-1.0	i	19	6	-2.2
O=C(Nc1cc(C(F)(F)F)cc(C(F)(F)F)c1)[C@H]1O[C@@H](n2ccc(=O)[nH]c2=O)[C@H](O)[C@@H]1O	-4.2	i	-11	-9	0.2
C[C@H]1CCCCO[C@H](CN(C)C(=O)Nc2ccccc2)[C@@H](C)CN([C@@H](C)CO)C(=O)c2cc(NS(=O)(=O)c3cn(C)cn3)ccc2O1	-6.0	i	0	2	-3.3
CNC[C@H]1OCCCC[C@H](C)Oc2ccc(NS(C)(=O)=O)cc2C(=O)N([C@@H](C)CO)C[C@@H]1C	-2.9	i	5	12	-0.3
CCCC(=O)Nc1ccc2c(c1)C(=O)N(C)C[C@@H](OC)[C@H](C)CN(Cc1nccs1)[C@H](C)CO2	-3.0	i	-4	-3	-0.7
O=C(COC(=O)c1ccc2c(c1)OCCO2)Nc1ccc(F)cc1	-0.8	i	8	8	1.8
COc1cccc(CN2CCC2(C)C(=O)NCCc2ccccn2)c1OC (configuration not stated)	-7.6	i	5	-2	-2.0
C[C@@H]1CN([C@H](C)CO)C(=O)c2cc(NC(=O)CCCN(C)C)ccc2O[C@H]1CN(C)S(=O)(=O)c1ccccc1	-4.4	i	3	-5	-4.7
CN(C)c1ccc(CNC(=O)C2(C)Cc3c(-c4ccc(N(C)C)cc4)ccnc3O2)cc1 (configuration not stated)	17	i	-11	6	-1.5
COc1cccc(S(=O)(=O)N(C)C[C@@H]2Oc3ncc(C#CCC(C)C)cc3C(=O)N([C@H](C)CO)C[C@@H]2C)c1	-1.0	i	1	-7	4.7
COc1ccc(-c2ccc3c(c2)[C@H]2[C@H](CCN2C(=O)c2cccc(F)c2)[C@@H](CO)N3)cc1	19	i	-6	-11	8.9
COc1cccc(C(O)c2nc(-c3cccc(CO)c3)cs2)c1 (configuration not stated)	0.4	i	2	-8	0.6
CCCC#Cc1ccc2c(c1)O[C@H](CN(C)C(=O)c1ccccc1)[C@H](C)CN([C@@H](C)CO)S2(=O)=O	-2.8	i	-1	-13	-2.3
O=C(c1ccccc1)N1CC2(C1)[C@H](c1ccccc1)[C@H](CO)N2CC1CC1	-1.4	i	-2	-6	-3.0
CNC(=O)C[C@@H]1CC[C@H]2[C@@H](COC[C@H](O)CN2Cc2ccncc2)O1	-1.7	i	2	11	-6.0
Cn1c(=O)c2[nH]c(C3CCC3)nc2n(C)c1=O	-3.8	i	0	10	0.2
COc1ccc(-c2cn(CC[C@@H]3CC[C@H](NC(=O)Nc4ccc(F)cc4)[C@H](CO)O3)nn2)cc1	-2.8	i	-2	3	1.2
CCC(=O)N1C[C@@H]2[C@H](c3ccccc31)[C@H](CO)N2C(=O)CC1CC1	-3.5	i	2	4	-0.9
CCCNC(=O)Nc1ccc2c(c1)OC[C@H](C)N(C(=O)C1CCC1)C[C@H](C)[C@@H](OC)CN(C)C2=O	0.9	i	0	-1	-1.8
CO[C@H]1CN(C)C(=O)c2ccc(NC(C)=O)cc2OC[C@H](C)N(Cc2ccncc2)C[C@@H]1C	-1.0	i	1	-1	2.4
CN1CCN(c2ncnc3c2ncn3[C@H]2CN(Cc3ccc(F)cc3)C[C@@H](CO)O2)CC1	-1.0	i	4	13	-1.5
CCCCS(=O)(=O)NCC1CCN(C(=O)C(=O)c2cc3ccccc3o2)CC1	2.9	i	1	-9	3.5
O=C(C[C@@H]1CC[C@@H]2[C@H](COC[C@H](O)CN2C(=O)Nc2ccc(F)cc2)O1)NCCc1ccccc1	0.0	i	-4	-3	2.0

Three compounds from above, limited to Ecoli rRNA inh OD600:
Compound	Ecoli rRNA inh OD600
O=C(c1ccccc1)N1CC2(C1)[C@H](c1ccccc1)[C@H](CO)N2CC1CC1	-6
CNC(=O)C[C@@H]1CC[C@H]2[C@@H](COC[C@H](O)CN2Cc2ccncc2)O1	11
Cn1c(=O)c2[nH]c(C3CCC3)nc2n(C)c1=O	10

Other results.
SMILES	AF4-AF9 inh	FGF22 binding	Ecoli rRNA inh	Ecoli rRNA inh OD600	Ecoli rRNA inh RFP
C[C@@H]1CN([C@H](C)CO)C(=O)c2cccc(NC(=O)NC3CCCCC3)c2O[C@@H]1CN(C)C(=O)Nc1ccccc1	-0.4	i	-1	-1	2.3
CC(C)NC(=O)N(C)C[C@H]1OCCCC[C@@H](C)Oc2ccc(N(C)C)cc2C(=O)N([C@H](C)CO)C[C@@H]1C	-3.8&0.2&1.9	i	-1&13	3&-2	-3.2&0.5
O=C(Nc1ccccc1F)N1CCCCN2[C@H](CO)[C@H](c3ccc(-c4cccnc4)cc3)[C@@H]2C1	-5.0	i	0	4	-5.0
CO[C@H]1CN(C)C(=O)c2cc(NS(=O)(=O)c3cccc(C)c3)ccc2OC[C@H](C)NC[C@H]1C	-3.1	i	1	-1	0.6
O=C(C[C@@H]1CC[C@@H]2[C@H](COC[C@H](O)CN2C(=O)c2ccc(F)cc2)O1)NCCCN1CCOCC1	-17	i	-2	2	-0.2
COc1cc2oc(=O)cc(CN(Cc3ccccc3)Cc3ccccc3)c2cc1Cl	-1.7	i	0	2	-9.7
CO[C@@H]1CN(C)C(=O)c2cc(NC(=O)c3cnccn3)ccc2OC[C@@H](C)NC[C@H]1C	-4.7	i	1	1	0.4
Cc1noc(C)c1NC(=O)N(C)C[C@@H]1Oc2ccc(NC(=O)C3CC3)cc2C(=O)N([C@@H](C)CO)C[C@H]1C	-0.7	i	3	-2	0.7
C[C@H](CO)N1C[C@H](C)[C@H](CN(C)S(=O)(=O)c2ccccc2)Oc2c(NC(=O)Nc3ccccc3)cccc2C1=O	1.0	i	-2	-9	3.7
CCC(=O)N1[C@@H]2c3cccc(=O)n3C[C@@H]2[C@@H](CO)[C@@H]1C(=O)N1CCCCC1	-0.8	i	3	5	-0.9
C[C@@H]1CN([C@@H](C)CO)C(=O)c2cc(NC(=O)Cn3cnnn3)ccc2O[C@@H]1CN(C)C(=O)Nc1ccc(C(F)(F)F)cc1	0.1	i	-27	-34	-2.6
O=S(=O)(Nc1ccc2nc(N3CCOCC3)sc2c1)c1ccccc1	-1.6	i	2	-15	5.3
CCC(=O)NC[C@@H]1[C@@H](c2ccc(-c3cccc(F)c3)cc2)[C@@H](CO)N1C(=O)CC	0.8	i	-6	-4	1.1
C[C@H]1CN([C@@H](C)CO)C(=O)CCCn2nncc2CO[C@@H]1CN(C)C(=O)Nc1ccccc1F	-0.1&-3.7	i	15&0	11&2	0.4&-0.8
C[C@@H]1CN([C@H](C)CO)C(=O)c2cccc(NC(=O)Nc3cccc4ccccc34)c2O[C@H]1CN(C)S(C)(=O)=O	5.2	i	-9	-12	5.1
CCN(C[C@H]1[C@H](c2ccccc2)[C@@H](CO)N1CC1CC1)C(=O)c1cccc(F)c1	-0.8	i	0	-2	4.0
C[C@@H]1CCCCO[C@H](CN(C)C(=O)C2CCCCC2)[C@@H](C)CN([C@H](C)CO)C(=O)c2cc(NS(=O)(=O)c3cccs3)ccc2O1	-11&-0.5	i	5&18	6&4	-0.8&3.5
COc1cc(C=C(C#N)c2ccc([N+](=O)[O-])cc2)ccc1O	14	i	-20	-30	-3.9
C[C@H]1CN([C@@H](C)CO)C(=O)c2cc(NC(=O)Cc3cn(C)c4ccccc34)ccc2O[C@H]1CN(C)Cc1ccncc1	3.1	i	0	-5	0.3
COCC#Cc1cnc2c(c1)C(=O)N([C@H](C)CO)C[C@@H](C)[C@@H](CN(C)C(=O)Nc1ccccc1OC)O2	-3.0	i	2	2	-0.9

Profiles as entered above. Screens in order: AF4-AF9 inh | FGF22 binding | Ecoli rRNA inh | Ecoli rRNA inh OD600 | Ecoli rRNA inh RFP
C[C@@H]1CN([C@@H](C)CO)C(=O)c2cc(NC(=O)Cn3cnnn3)ccc2O[C@@H]1CN(C)C(=O)Nc1ccc(C(F)(F)F)cc1 is listed as 0.1 | i | -27 | -34 | -2.6
C[C@H]1CN([C@@H](C)CO)C(=O)c2cc(NC(=O)Cc3cn(C)c4ccccc34)ccc2O[C@H]1CN(C)Cc1ccncc1 is listed as 3.1 | i | 0 | -5 | 0.3
COCC#Cc1cnc2c(c1)C(=O)N([C@H](C)CO)C[C@@H](C)[C@@H](CN(C)C(=O)Nc1ccccc1OC)O2 is listed as -3.0 | i | 2 | 2 | -0.9
C[C@H]1CN([C@@H](C)CO)C(=O)CCCn2nncc2CO[C@@H]1CN(C)C(=O)Nc1ccccc1F is listed as -0.1&-3.7 | i | 15&0 | 11&2 | 0.4&-0.8

Additional structures.
SMILES	AF4-AF9 inh	FGF22 binding	Ecoli rRNA inh	Ecoli rRNA inh OD600	Ecoli rRNA inh RFP
C[C@@H]1CN([C@@H](C)CO)C(=O)c2cc(NC(=O)CCN3CCOCC3)ccc2O[C@@H]1CN(C)C(=O)Nc1cccc2ccccc12	-6.7	i	1	12	1.7
C[C@H]1CN([C@@H](C)CO)C(=O)Cc2cc(NS(=O)(=O)c3ccc(Cl)cc3)ccc2O[C@@H]1CN(C)S(=O)(=O)c1ccccc1	-7.6	i	-2	-4	-0.8
CN1[C@@H]2c3ccc(-c4ccccc4)c(=O)n3C[C@H]1[C@H](CO)[C@H]2C(=O)NCCc1ccccc1	-0.3	i	-2	8	1.8
C[C@@H]1CN([C@@H](C)CO)C(=O)c2cccc(NC(=O)CCCCCC(=O)Nc3ccccc3N)c2O[C@H]1CN(C)C(=O)Nc1ccc(F)cc1	0.0	i	-1	7	-1.9
COCC(=O)N(C)C[C@@H]1Oc2cc(C#CCC3CCCC3)ccc2S(=O)(=O)N([C@H](C)CO)C[C@H]1C	4.0	i	-9	-31	15
CC(C)NC(=O)Nc1ccc2c(c1)C(=O)N([C@H](C)CO)C[C@@H](C)[C@H](CN(C)C(=O)Cc1ccccc1)OCCCC[C@@H](C)O2	1.9	i	-1	4	1.0
C[C@H](CO)N1C[C@H](C)[C@H](CN(C)C(=O)NC2CCCCC2)Oc2ccc(NC(=O)C3CCCCC3)cc2CC1=O	-1.6	i	-1	1	0.1
COc1ccc(S(=O)(=O)N(C)C[C@@H]2OCCCC[C@@H](C)Oc3ccc(NC(=O)CCCN(C)C)cc3C(=O)N([C@@H](C)CO)C[C@H]2C)cc1	3.1	i	2	4	-2.8
O=C(NCC[C@@H]1CC[C@@H](NC(=O)C2CCCC2)[C@H](CO)O1)c1ccc(F)cc1	-0.3	i	1	2	1.0

Compound activity deposited in PubChem BioAssay by Broad Institute.
